AID923 – qHTS Assay for Allosteric/Competitive Inhibitors of Caspase-1: Spectroscopic Profiling in AFC Spectral Region | compound fluorescence, AFC spectral region (405/520 nm); almost no hit is shown here | Potency, µM (highest dose often 57.5 µM), for inactives: at the top dose fluorescence increase, actives largely listed as activators | actives 1.1% (n = 75,000) | AID 923, 2007; active = well fitted activation curve with a large enough effect; inconclusive = small, poorly fitted or top-dose-only effect;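 also: potency is read from the fitted curve at half-maximal effect; 0% is about no effect; scaled to a free AFC standard on each plate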
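Titrations up to 57 uM read every 20 sec for 3 min (405/520 nm) with 50 nM caspase 1 and 5 uM Ac-WEHD-AFC, pH 7.5 HEPES buffer. Fluorescence-vs-time intercept gave baseline, scaled against on-plate AFC standard.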
A488 fluor – compound autofluorescence in A488 spectral region. compound autofluorescence, A488 spectral region, dye equivalency; hits give high values. max dye equivalency, M. actives 0.1% (n = 59,000); active = above 10 nM dye equivalent; inconclusive = 1 to 10 nM; inactive = 1 nM or less; about half of its hits are not listed in these tables;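 also: highest value over a series up to 38 µM; compound alone in buffer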
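Intrinsic compound fluorescence is measured in 100 mM Tris buffer at pH 8.0 following 15 min incubation at room temperature. Intensities at 480 nm excitation/540 nm emission are calibrated to an on-plate A488 concentration series, giving dye-equivalent concentrations.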
Resorufin autofl – compounds fluorescent in resorufin spectral region. Compound fluorescence, resorufin region 547/598 nm, buffer; hits give high values. max dye-equivalent concentration, M. actives 0.04% (n = 59,000). AID 588; active = above 10 nM dye equivalent; inconclusive = 1 to 10 nM; inactive = 1 nM or less; a few of its hits are not listed in these tables; also: highest value over a series up to 38 µM
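Intrinsic fluorescence profiled in the resorufin window (ex 547 nm, em 598 nm) after 15 min at room temperature in pH 8.0 Tris buffer (100 mM); responses normalized against a six-point resorufin standard series as dye-equivalent concentration.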
TSHR ag – activates the human thyroid stimulating hormone receptor. P16473. HEK293-CNG-TSHR cells (CNG channel as cAMP sensor), membrane potential dye, cAMP. Potency, µM (series often up to 57.1 µM), without a hit: top-dose activation, usual class: activators. actives 0.48% (n = 73,000); active = well fitted activation curve of enough size with the parental cells flat; inconclusive = any curve in the parental cells; inactive = parental cells flat and receptor cells flat or falling; also: potency is read from the fitted curve at half-maximal effect; % of control where 0% means no effect; weak receptor curves with flat parental cells got no call and are not listed
Target sequence (P16473 whole entry, looked up): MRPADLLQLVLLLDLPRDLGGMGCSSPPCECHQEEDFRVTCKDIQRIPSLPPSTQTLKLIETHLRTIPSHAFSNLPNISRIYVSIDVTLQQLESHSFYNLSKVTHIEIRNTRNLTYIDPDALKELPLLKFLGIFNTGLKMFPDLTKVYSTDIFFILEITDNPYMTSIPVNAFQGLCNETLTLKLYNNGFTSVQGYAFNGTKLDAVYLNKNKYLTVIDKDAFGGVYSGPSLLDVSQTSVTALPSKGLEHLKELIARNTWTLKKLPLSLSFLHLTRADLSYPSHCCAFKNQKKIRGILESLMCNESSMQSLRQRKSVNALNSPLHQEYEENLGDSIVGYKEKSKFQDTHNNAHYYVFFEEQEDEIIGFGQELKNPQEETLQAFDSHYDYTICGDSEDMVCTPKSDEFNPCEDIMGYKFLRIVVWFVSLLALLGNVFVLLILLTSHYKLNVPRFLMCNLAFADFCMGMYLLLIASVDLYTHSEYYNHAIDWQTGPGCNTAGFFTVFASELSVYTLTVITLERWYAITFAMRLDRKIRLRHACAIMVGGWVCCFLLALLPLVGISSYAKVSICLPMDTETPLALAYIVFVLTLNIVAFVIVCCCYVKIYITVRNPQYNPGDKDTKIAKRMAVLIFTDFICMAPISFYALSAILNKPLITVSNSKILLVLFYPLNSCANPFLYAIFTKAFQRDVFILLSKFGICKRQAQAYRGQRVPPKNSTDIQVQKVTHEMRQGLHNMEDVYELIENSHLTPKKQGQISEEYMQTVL
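HEK 293 cells stably expressing TSHR and a modified CNG channel, with CNG-only parental cells as counterscreen, were preloaded 60 min at room temperature with membrane potential dye containing 100 uM RO 20-1724. Compound exposure was 30 min, and depolarization was read as fluorescence at 590 nm.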
A647 autofl – compound autofluorescence in A647 spectral region; 59,000 tested, under 10 active; max dye-equivalent concentration, M; Compound fluorescence, A647 channel (570/671 nm), Tris buffer; active means above 1 µM dye equivalent; inconclusive means 0.1 to 1 µM; inactive means 0.1 µM or less;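 also: values scaled relative to a standard on each plate; highest value over a series up to 38 µM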
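Compound fluorescence was measured in 100 mM Tris buffer, pH 8.0, after 15 min at room temperature, using 570 nm excitation and 671 nm emission filters. Signal was normalized to a per-plate Alexa 647 standard curve and expressed as dye-equivalent concentration at each compound concentration.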
* hit, by the source's call; i = inactive; u = inconclusive; x = not tested or not shown; [ ] = another dose, or the depositor's remark. Only part of the results is shown; count on the stated rates, not on these rows.

SMILES	AID923	A488 fluor	Resorufin autofl	TSHR ag	A647 autofl
Cc1ccc(C2c3c(oc4ccc(Cl)cc4c3=O)C(=O)N2CCCN2CCOCC2)o1 (stereo not drawn)	3.6%	x	x	1%	x
COCCn1c(C)cc(C(=O)COC(=O)c2ccc(-n3nc(C)cc3C)cc2)c1C	0.2%	i	i	x	9.9e-09
CCOc1ccc(C(=O)Nc2c3c(nn2-c2ccc(F)cc2)CS(=O)C3)cc1 (stereo not drawn)	0.3%	i	i	10%	1.9e-08
CN1CCN(S(=O)(=O)c2ccc(Cc3ccc(S(=O)(=O)N4CCN(C)CC4)cc3)cc2)CC1	-0.8%	i	i	3%	1e-09
CN1C(=O)C(O)(CC(=O)c2ccccc2O)c2cc(Br)ccc21 (stereo not drawn)	-1.1%	x	x	-16%	x
CCOC(=O)N1CCN(C(=O)CSc2nnc(-c3cc(OC)cc(OC)c3)o2)CC1	0.2%	i	i	22%	5.5e-09
O=C(CC(c1ccco1)S(=O)(=O)c1ccccc1)c1ccc(F)cc1 (stereo not drawn)	x	i	i	x	7.6e-08
CC(=O)CC(=O)Nc1cccc2c1CCCC2	0.4%	x	x	24%	x
Cn1c(=O)cc(OCCCC(=O)N2CCN(c3ccccc3)CC2)c2ccccc21	-0.7%	i	i	1%[11.4 µM]	6.7e-09
O=C(O)C1CCCN1c1ncnc2c1oc1ccccc12 (stereo not drawn)	-2.5%	i	i	0%	8e-09
Nc1nc2sc3c(c2cc1C(=O)N1CCOCC1)CCCC3	0.6%	x	x	3%[11.4 µM]	x
Cc1ccc2nc(C)cc(OCC(=O)O)c2c1	-1.1%	i	i	6%[11.4 µM]	1e-09
COc1cccc(CSCC(=O)O)c1	-0.5%[11.5 µM]	i	i	1%[11.4 µM]	1e-09
CCCNC(=O)c1cc(-c2ccc(O)cc2)on1	0.1%	x	x	8%	x
COc1ccccc1-c1nccc(NC2CCNCC2)n1	0.9%	i	i	8%	1.4e-08
COc1cccc(N2CC(C(=O)NC3CCCCC3)CC2=O)c1 (stereo not drawn)	1.3%	i	i	4%	2.4e-09
CC(C)CC1(C)NC(=O)N(CC(=O)NC(=O)Nc2ccc3c(c2)OCCO3)C1=O (stereo not drawn)	-0.9%	i	i	-1%	3.3e-08
CCOC(=O)c1cccc(NC(=O)CSc2nnnn2C)c1	-0.9%	i	i	-4%	2.3e-09
CCCC1CC(C)(C(=O)Cn2[nH]c(=O)ccc2=O)OC1=O (stereo not drawn)	-0.6%	i	i	-4%	2.3e-09
COc1ccc(OC)c(S(=O)(=O)NCc2cn3cccc(C)c3n2)c1	0.0%	i	i	2%	7e-09
CCC1(C)COC2(OC1)C(=O)Nc1ccccc12 (stereo not drawn)	1.9%	i	i	-1%[11.4 µM]	8e-09
COc1ccc(-c2[nH]ncc2-c2cnc(C)s2)c(O)c1	-0.3%	x	x	-5%	x
Cc1nn(C)c(C)c1NC(=O)CSc1nc(Cc2ccccc2)nc2c1cnn2-c1ccccc1	-0.4%	i	i	-7%	3.7e-09
O=C(CSc1nnnn1C1CCCCC1)N1CCCC1	-0.5%	i	i	-8%	1e-09
N#Cc1nn(-c2ccccc2)nc1N1CCCCC1	0.5%	i	i	u	3.8e-08
O=C(NCCN1CCCCCC1)c1ccc(CS(=O)(=O)c2ccc(Br)cc2)o1	-1.2%	x	x	u	x
CCc1c(C)sc(NC(=O)c2cnn3cccnc23)c1C#N	-1.5%	i	i	-2%	2.9e-08
Cc1ccc(S(=O)(=O)N2CCCC(C(=O)NCCCN3CCCCC3C)C2)cc1 (stereo not drawn)	3.1%	i	i	6%	4.2e-09
COc1ccc2c(C(=O)CN3CC(C)OC(C)C3)c[nH]c2c1 (stereo not drawn)	0.0%	i	i	15%	4.4e-08
CCCC[C@@H]1C[C@H]1C(NC(=O)c1ccc(-c2ccccc2)cc1)c1ccc(-c2ccccc2)cc1 (stereo partly drawn)	2.4%	x	x	-3%	x

Entries listed so far containing an NH in an aromatic ring:
SMILES	AID923	A488 fluor	Resorufin autofl	TSHR ag	A647 autofl
CCCC1CC(C)(C(=O)Cn2[nH]c(=O)ccc2=O)OC1=O (stereo not drawn)	-0.6%	i	i	-4%	2.3e-09
COc1ccc(-c2[nH]ncc2-c2cnc(C)s2)c(O)c1	-0.3%	x	x	-5%	x
COc1ccc2c(C(=O)CN3CC(C)OC(C)C3)c[nH]c2c1 (stereo not drawn)	0.0%	i	i	15%	4.4e-08

(cont.)
SMILES	AID923	A488 fluor	Resorufin autofl	TSHR ag	A647 autofl
O=C(C1CCN(S(=O)(=O)c2cccc3cccnc23)CC1)N1CC=C(c2ccccc2)CC1	-1.0%	x	x	u	x
Cc1c(C(=O)NCc2ccccc2)oc2ccc(S(=O)(=O)N3CCCC3)cc12	-2.8%	x	x	5%	x
CC(NC(=O)NC1CCCCC1)C(c1cccs1)N1CCN(C)CC1 (stereo not drawn)	0.8%	x	x	2%	x
Cn1nnnc1SCC(=O)NC(C)(C)C	2.0%	i	i	1%	7.3e-09
c1ccc2[nH]c(CSc3ncnc4c3oc3ccccc34)nc2c1	4.5%	i	i	u	1.9e-08
O=C(NCC(F)(F)F)Nc1ncccn1	1.6%	i	i	2%	2.6e-08
CS(=O)(=O)N(CC(N)=O)Cc1ccc(Cl)cc1	-0.8%	i	i	2%	3.5e-08
COC(=O)c1c(C)[nH]c(C(=O)CN2CCOCC2)c1C	-0.3%	i	i	u	2.2e-08
Cn1c(=S)c2[nH]c(SCCCc3ccccc3)nc2n(C)c1=O	2.8%[11.5 µM]	i	i	12%[11.4 µM]	3.2e-08
COc1ccccc1-c1cc(NCc2cccc(C)c2)ncn1	5.1%	i	i	u	2.3e-09
CC1CCC/C(=C\Nc2ccccc2C(=O)O)C1=O (stereo not drawn)	2.1%	i	i	1%	1e-09
CC(C)(C)NC(=O)C(c1ccc(OCC(N)=O)cc1)N(C(=O)c1cccnc1)C1CC1 (stereo not drawn)	-0.5%	i	i	-15%	3.5e-08
COc1ccccc1OCc1ccc(C(=O)OCC2CCCO2)o1 (stereo not drawn)	1.1%	i	i	3%	8.5e-09
CCOC(=O)c1ccc2nc(C(F)(F)F)[nH]c(=O)c2c1	0.4%	i	i	0%	2.2e-09
CN=Cc1sc2ccccc2c1O	8.9%	i	i	-4%	2.2e-08
COc1ccc(-c2nnc3sc(COc4ccccc4)nn23)cc1	x	i	i	x	5e-09
CSc1ccc(NC(=O)NCCCN2CCN(c3ccccc3F)CC2)cc1	-2.6%	i	i	2%[11.4 µM]	2.9e-08
CC(=O)c1c(NC(=O)C(C)C)nc(C)nc1-c1ccccc1	0.6%	x	x	u	x
C(=C\c1ccccc1)/CSc1nnc(-c2ccccn2)n1Cc1ccco1	-0.7%	i	i	u	2.6e-08
Cn1c(SCC(=O)Nc2cccc(F)c2)nnc1-c1cc2ccccc2o1	2.7%	i	i	10%	1.1e-09
Cc1nc2ccccc2c(=O)n1/N=C/c1ccc(O)cc1	2.1%	i	i	-4%	1.1e-09
O=C(O)c1ccc(-c2ccccc2)[nH]1	0.1%	i	i	6%	2e-08
CCC(C#CCN1CCCCC1)(CC)OCCC#N	1.0%	x	x	13%	x
O=C1C(Cl)=C(NCCN2CCOCC2)C(=O)c2ncccc21	7.4%	x	x	-7%	x
Cc1nnc(SCC(=O)Nc2nc(-c3ccccc3)cs2)n1N	1.5%	i	i	-6%	7.6e-09
CCN(CC)c1ccc2cc(-c3nnc(-c4ccncc4)o3)c(=O)oc2c1	x	4.8e-08M*	i	x	1.2e-08
O=C(Cn1c(C(=O)N2CCN(C3CCCC3)CC2)cc2sccc21)c1ccccc1	-0.1%	i	i	13%	7.4e-09
CC(C)Cc1[nH]c(=O)c(C#N)c2c1CCCC2	x	i	i	x	2.1e-08
COc1ccccc1CNc1nc(-c2cccc(C#N)c2)nc2ccccc12	3.8%	i	i	u	1e-09
Cn1c(N2CCCC2)nc2c1c(=O)n(Cc1ccc(Cl)cc1)c(=O)n2C	-3.2%	i	i	-11%	1e-09
Cn1cccc1C(=O)NC(=O)CSc1cccc[n+]1[O-]	0.6%	i	i	-15%	1e-09
CC1CCCN(C(=O)c2ccc3nc[nH]c3c2)C1 (stereo not drawn)	-0.2%	i	i	-1%	1e-09
O=C1CC(c2ccccc2)CC2=C1CN(C1CCCCC1)CN2 (stereo not drawn)	1.6%	i	i	8%	1.3e-08
COc1ccc(CNC(=O)C2CCCN2S(=O)(=O)c2ccccc2)cc1 (stereo not drawn)	0.4%	x	x	1%[11.4 µM]	x
c1cncc(-c2cncnc2-n2ccnc2)c1	0.5%	i	i	u	1e-09
CCOC(=O)c1c(C(=O)OCC)c(C)n(N2C(=O)CSC2=S)c1C	0.6%	i	i	x	3.9e-09
Cc1nn(CC(C)C)c(=S)[nH]c1=O	-0.4%	i	i	-2%[11.4 µM]	1e-09
COCCn1c(=O)[nH]c2cc(C(=O)NCCN3CCN(c4cccc(Cl)c4)CC3)ccc2c1=O	1.0%	i	i	16%	1e-09
COc1ccc(C(=O)N2CCC[C@@]3(CCN(c4ccccn4)C3)C2)cc1	0.2%	i	i	7%	1.7e-09
Cn1nccc1C(=O)Nc1ccc(OC(=O)c2ccnn2C)cc1	-0.2%	i	i	10%	1.5e-09
O=C1CSC(=S)N1/N=C\c1ccc(Cl)c([N+](=O)[O-])c1	-2.4%[11.5 µM]	i	i	2%[11.4 µM]	1e-09
Cc1cccc(N2CCN(C(=O)CCn3c(=S)[nH]c4cc5c(cc4c3=O)OCO5)CC2C)c1 (stereo not drawn)	0.1%	i	i	22%	2e-09
Cc1cnc(C(=O)Nc2ccc(F)c(F)c2)cn1	0.5%	i	i	23%	4.2e-09
C=CCNc1ncnc2c1cnn2-c1ccc(Cl)cc1	-1.2%	x	x	-23%	x
COC(=O)c1cccc(NC(=O)C2C3CCC(C3)C2C(=O)O)c1 (stereo not drawn)	0.7%	i	i	-12%	1e-09

Overlap with the part before: 2 compounds; new compounds follow.
SMILES	AID923	A488 fluor	Resorufin autofl	TSHR ag	A647 autofl
C=CCNc1ncnc2c1cnn2-c1ccc(Cl)cc1	-1.2%	x	x	-23%	x
COC(=O)c1cccc(NC(=O)C2C3CCC(C3)C2C(=O)O)c1 (stereo not drawn)	0.7%	i	i	-12%	1e-09
C=CCNC(=O)C1CC(=O)N(c2ccc(OCC(=O)Nc3ccc(C)cc3)cc2)C1 (stereo not drawn)	-0.6%	i	i	8%	1e-09
CCOC(=O)C1CCCN(C(=O)C2CCN(Cc3nc(-c4ccc(Cl)cc4)oc3C)CC2)C1 (stereo not drawn)	-1.5%	i	i	u	1.5e-08
Cc1cc(NC(=O)CCCC(=O)OCC(F)(F)C(F)F)cc(C)c1C(=O)O	1.4%	i	i	1%	1e-09
COc1ccc(OC)c(NC(=O)N[C@@H](Cc2ccccc2)C(=O)O)c1	0.2%	i	i	1%	2.6e-08
Cn1c(=O)c2c(nc(OCc3cccnc3)n2Cc2ccccc2)n(C)c1=O	x	i	i	x	8e-08
Oc1ccccc1CNCCCNCc1ccccc1O	-1.7%	i	i	x	1.9e-08
Cc1cccc(Nc2nc(N)nc(CN3CCN(c4ccccc4)CC3)n2)c1	0.3%	i	i	5%	1e-09
CNC(=O)c1nnn(-c2ccccc2)c1C(=O)NC	0.6%	i	i	1%	1.3e-09
O=C(Cc1ccccc1)Nc1ccc(CN2CCOCC2)cc1	-0.8%	i	i	0%	4.3e-09
S=c1[nH]nc(-c2cccnc2)n1Cc1ccccc1	-6.5%	i	i	9%	8.1e-09
Cc1cc(C)cc(OCC(=O)NC2=NCCS2)c1	-0.5%	i	i	-3%	6.9e-09
C[C@@H](N)C(=O)O	1.3%	x	x	7%	x

Assay outcomes as filed in PubChem BioAssay.
